# Menin MLL FP FL = qHTS Assay for Inhibitors Targeting the Menin-MLL Interaction in MLL Related Leukemias: Competition With Fluorescein Labeled MLL-derived Peptide. FP activity change, % at 61.4 µM. Fluorescence polarization, fluorescein-MLL peptide displacement from menin. 290,000 tested, under 10 active. AID 1766, 2009; inconclusive = falling polarisation curve, or a change in total fluorescence; inactive = total fluorescence flat and polarisation flat or rising; no compound was filed as active; the % refers to the polarisation; negative = inhibition;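 note: % of control where 0% means no effect; inhibitors lower the polarisation; unlabelled MLL peptide was the positive control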
# gsp ag = qHTS for Agonist of gsp, the Etiologic Mutation Responsible for Fibrous Dysplasia/McCune-Albright Syndrome: qHTS; gsp mutant cells, cAMP HTRF, 30 min; control for the full effect not named in the record; Potency, µM (top dose mostly 76.9 µM), without a hit: top-dose activation (cAMP increase), hits mostly activators; 340,000 tested, 0.13% active; active = well fitted activation curve with a large enough effect; inconclusive = small, poorly fitted or top-dose-only effect, or another doubt; inactive = no such curve, though single readings can be large or run the other way; cell line not stated here;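 note: phosphodiesterase inhibitor Ro 20-1724 added with compounds to block cAMP breakdown; potency is the fitted concentration of half-maximal effect; nearly all actives have a fitted effect of over 60% in size; about a fifth of the inactives were tested at one dose only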
#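 Cells stably selected in G418 were plated at 2000/well, grown 16-24 hr, then given compounds in DMSO with the PDE inhibitor […] (300 uM solution added) for 30 min at 37C; cAMP was read by HTRF.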
# gsp antag = qHTS for Antagonists of gsp, the Etiologic Mutation Responsible for Fibrous Dysplasia/McCune-Albright Syndrome: qHTS. 340,000 tested, 0.4% active. gsp-mutant cells, cAMP HTRF, 30 min; control for the full effect not named in the record. Potency, µM (top dose mostly 76.9 µM), inactives show top-dose activity change, negative = inhibition, actives largely listed as inhibitors; active = falling curve of any shape with a large fitted effect; inconclusive = falling curve, mostly with a smaller effect; inactive = flat or rising curve; cell line not stated here;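 note: intracellular cAMP measured with PDE inhibitor Ro 20-1724 present during compound exposure; potency is the fitted concentration of half-maximal effect; % is set by controls: 0 for no effect and ±100 for the full control effect; nearly all actives have a fitted effect of over 65% in size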
#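 Cells, 2000/well, grown 16–24 h in DMEM 10% FBS with 0.5 mg/ml G418, then compounds plus […] (300 uM addition stock), 30 min at 37C. cAMP read by HTRF (cAMP-d2 and anti-cAMP antibody-K in lysis buffer) after 30 min RT.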
# Sfp PPTase inh = qHTS Assay for Inhibitors of Bacillus subtilis Sfp phosphopantetheinyl transferase (PPTase); 310,000 tested, 3.5% active; Biochemical Sfp PPTase activity, qHTS; Potency, µM, without a hit: max response, negative = inhibition, actives largely listed as inhibitors; 4'-phosphopantetheinyl transferase ffp (Bacillus subtilis), Q9F4F7; AID 1490, 2009; active = well fitted inhibition curve with a large enough effect; inconclusive = small, poorly fitted or top-dose-only effect, or another doubt; inactive = no such curve, though single readings can be large or run the other way;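 note: the enzyme is Sfp with the accession as filed and its product quenches rhodamine fluorescence; potency is the fitted concentration of half-maximal effect; 0% = enzyme reaction without inhibitor and -100% = no enzyme wells; top concentration of the series not given in the record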
#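 After 15 min at room temperature with compound, 15 nM Sfp received 5 uM rhodamine-CoA plus 12.5 uM BHQ-2-ybbR (50 mM Hepes pH 7.6, 10 mM MgCl2). Rate came from the fluorescence difference over 30 min, ex 525/em 598 nm.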
# D2 potentiator = Beta-Arrestin HTS for Positive Allosteric Modulators of the Human D2 Dopamine Receptor: Potentiators; D(2) dopamine receptor (Homo sapiens), P14416; DiscoveRx D2 beta-arrestin cells, luminescence, 90 min; 100% = 57 uM dopamine signal; potentiation, % (concentration not given with the values); 360,000 tested, 0.23% active; active = potentiation of 50% or more; inconclusive = 30% to 50%; inactive = 30% or less;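 note: compound concentration not given in the record; tested on top of an EC20 dose of dopamine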
# Target sequence (P14416 whole entry, looked up): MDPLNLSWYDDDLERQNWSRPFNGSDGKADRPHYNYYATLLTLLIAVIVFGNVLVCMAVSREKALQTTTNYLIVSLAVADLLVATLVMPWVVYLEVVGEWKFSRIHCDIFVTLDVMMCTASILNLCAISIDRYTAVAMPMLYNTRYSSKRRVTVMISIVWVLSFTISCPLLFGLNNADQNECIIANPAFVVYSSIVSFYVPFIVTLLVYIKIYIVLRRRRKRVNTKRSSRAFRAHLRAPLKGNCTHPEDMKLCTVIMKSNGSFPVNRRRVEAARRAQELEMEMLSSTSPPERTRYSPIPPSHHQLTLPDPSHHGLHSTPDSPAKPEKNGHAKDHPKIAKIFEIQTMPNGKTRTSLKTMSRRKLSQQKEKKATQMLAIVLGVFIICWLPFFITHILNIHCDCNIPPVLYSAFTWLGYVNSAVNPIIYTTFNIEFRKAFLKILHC
#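 PathHunter beta-arrestin assay in DiscoveRx D2 cells. Compounds were added with an EC20 of dopamine (50 nM final) for 90 min at 37 deg C. Luminescence was read 1 h after detection reagent, with 57 uM dopamine as the EC100 control.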
# TRPV1 PAM = HTS Assay for Compounds that Act as Potentiators of the Vanilloid Receptor 1; Transient receptor potential cation channel subfamily V member 1 (Homo sapiens), Q8NER1; TRPV1-expressing cells, Fluo-8 calcium influx, capsaicin EC20 potentiation; host cell line not named in the record; control for the full effect not named in the record; potentiation, % at 8.33 µM; 320,000 tested, 0.02% active; active means potentiation above 80%; inconclusive means 30% to 80%; inactive means below 30%; note: 0% is about no effect
#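 TRPV1-expressing cells were cultured overnight at 35.5C and loaded with Fluo-8 calcium dye for 40 to 90 min at room temperature. After a 10 s baseline, compound was added and calcium influx was read kinetically for 3 min (ex 480/em 520 nm).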
# ClpP mod = qHTS Assay for Activators of ClpP | Potency, µM (series often up to 57.5 µM), for inactives: at the highest dose activity change, negative = active | purified B. subtilis ClpP, FRET peptide cleavage, 20 min | 340,000 tested, 1.9% active; active = well fitted falling curve with a large enough effect; inconclusive = small, poorly fitted or top-dose-only effect; inactive = no such curve, though single readings can be large or run the other way; note: potency is the fitted concentration of half-maximal effect; the source files actives as falling curves though it sought activators and does not explain the sign; nearly all actives have a fitted effect of over 65% in size; many hits overshoot -100%
# Target sequence (P80244 whole entry, looked up): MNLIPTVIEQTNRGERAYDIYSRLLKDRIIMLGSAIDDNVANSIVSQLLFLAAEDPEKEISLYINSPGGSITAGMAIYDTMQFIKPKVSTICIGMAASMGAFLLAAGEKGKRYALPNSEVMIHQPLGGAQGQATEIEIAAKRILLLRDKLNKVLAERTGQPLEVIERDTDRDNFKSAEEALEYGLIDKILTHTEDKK
#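 Buffer: 100 mM Tris/HCl pH8, 100 mM KCl, 0.05% low protease BSA, 2.5% glycerol, 0.01% Tween-20. ClpP 10 microg/mL final; 20 min RT; delta FRET normalized to ADEP and DMSO controls.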
# Active calls of the source: *; ? = inconclusive; . = no result given; & = joins results of further samples; [ ] = dose if it differs, or a comment.
SMILES,Menin MLL FP FL,gsp ag,gsp antag,Sfp PPTase inh,D2 potentiator,TRPV1 PAM,ClpP mod
COc1ccc(CN(CCC(c2ccccc2)c2ccco2)C(=O)c2ccco2)cc1 (stereo not given),15,-7%,-20%,?,-2,3,.
Cc1ccnn1CCC(=O)N1CCCC(CCC(=O)N2CCN(c3ccccn3)CC2)C1 (stereo not given),0.6,-4%,-2%,17%,-4,-3,.
Cc1cccc(C(=O)NC(=S)Nc2ccc(S(=O)(=O)N(C)c3ccccc3)cc2)c1,-5.7,-26%,-3%,-1%,-4,6,3.8%
COc1ccc(NC(=O)N(C)C[C@@H]2OCc3cn(nn3)CCCC(=O)N([C@@H](C)CO)C[C@H]2C)cc1,.,6%,.,.,1,.,0.8%
Cc1ccc(C)c(OCc2ccc(C(=O)N3N=C(C(F)F)CC3(O)C(F)F)o2)c1 (stereo not given),-2.3,-3%,-10%,8%,-19,6,-3.7%
CCOC(=O)N1CCN(C(=O)CCn2c(=S)[nH]c3ccsc3c2=O)CC1,-3.9,-18%[15.4 µM],-17%,56µM*,1,-2,.
O=C(NCc1c(F)cccc1F)c1cc(COc2c(F)cccc2F)on1,-0.7,-16%,-5%,8%,-5,-24,.
CCc1nc(SCC(=O)N2CCN(C(=O)c3ccco3)CC2)c2c3c(sc2n1)CCCC3,0.1,0%,?,10%,-8,-6,-1.0%
CCN(CCNC(=O)C1CCC(=O)N1Cc1ccc(C)cc1)c1ccccc1 (stereo not given),1.2,9%,6%,15%,-8,-5,-0.8%
COc1ccccc1NC(=S)NCCSc1ccc(C)cc1,0.0,13%,-12%,7%,-8,-1,-1.7%
Cc1c(C(=O)N2CCOCC2)sc(NC(=O)c2ccc([N+](=O)[O-])cc2)c1C#N,-3.2,19%[15.4 µM],35µM*,25%,-6,-6,.
O=C(O)CC1Sc2nnc(COc3ccc(Cl)cc3)n2N=C1c1ccccc1 (stereo not given),-5.1,-3%,-3%,-30%,-3,15,.
CC(C)(C)c1cc(OC(=O)C2CCCC2)ccc1O,3.1,-1%[15.4 µM],7%,20%,-1,-14,-4.9%
COC(=O)C1(Cc2cc(-c3cccc(Br)c3)no2)CCN(C(=O)OC(C)(C)C)CC1,-1.5,7%,-15%,-13%,-21,-5,0.7%
Cc1ccc(N=Nc2c(N)[nH]n3c(=O)c4c(nc23)CCCC4)cc1,-2.4,.,.,32%[activator],.,16,.
CCC(C)NC(=O)C1c2cc(OC)c(OC)cc2C(=O)N(C)C1c1cccs1 (stereo not given),-1.8,-22%,0%,14%,8,4,-18%
Cc1ccc(C(=O)c2ccc([N+](=O)[O-])cc2)cc1,0.0,-6%,-8%,3%,15,-13,1.0%
CCOC(=O)c1cc(NC(=O)CSc2nnc(CN3CCOCC3)n2C)ccc1Cl,.,5%[15.4 µM],-5%,.,5,.,0.9%
CCC(=O)c1c(NC(CC)CO)cc(C)oc1=O (stereo not given),4.7,11%[15.4 µM],3%,15%,-7,-7,-1.3%
CN(C)CCCNc1nc(N)c([N+](=O)[O-])c(NCc2ccccc2)n1,-2.3,-4%[15.4 µM],8%,11%,-19,-2,.
O=C(CSCc1ccc(Cl)cc1)N/N=C/c1ccc(OCC(=O)Nc2ccccc2)cc1,1.6,19%,-10%,-50%,-2,-4,-4.4%
Cn1c2c(c(=O)n(C)c1=O)C(C(F)(F)F)(C(F)(F)F)N=C(C1CCCCC1)N2,.,2%[15.4 µM],10%,29%,10,?,-6.8%
COc1ccc(CN(C(=O)c2cccs2)c2ccccc2C(=O)O)cc1,1.2,13%,0%,15%,-10,15,0.5%
COc1cc(C2C=C(c3cccs3)Nc3ncnn32)cc(OC)c1OC (stereo not given),?,-9%[15.4 µM],3%,-5%,-7,16,.
COc1ccc(NCC(=O)Nc2cc(S(=O)(=O)N3CCOCC3)ccc2N2CCOCC2)c(OC)c1,5.1,38%,-12%,7%,-2,-1,-1.8%
CN1C(=S)SC2CS(=O)(=O)CC21 (stereo not given),1.3,-2%[15.4 µM],14%,11%,-4,-19,.
O=C(CSc1nccc(=O)[nH]1)NCc1ccc(Cl)cc1,0.0,-2%,2%,-12%,-8,1,-1.5%
O=C1CN(C(=O)CNC(=O)c2ccccc2Cl)c2ccccc2N1,-4.0,11%[15.4 µM],2%,-11%,-7,-1,.
CC(C)(C)NC(=O)CN(C(=O)CCC(=O)Nc1nccs1)c1ccc(F)cc1,1.5,8%,10%,22%,-3,5,-2.3%
COC(=O)c1nn(-c2ccc(OC)cc2)c(=O)cc1Oc1ccccc1,6.4,8%,9%,6%,-1,22,-1.5%

# Random excerpt: 2 records from the list, in no set order.
SMILES,Menin MLL FP FL,gsp ag,gsp antag,Sfp PPTase inh,D2 potentiator,TRPV1 PAM,ClpP mod
COc1ccc(NCC(=O)Nc2cc(S(=O)(=O)N3CCOCC3)ccc2N2CCOCC2)c(OC)c1,5.1,38%,-12%,7%,-2,-1,-1.8%
COc1cc(C2C=C(c3cccs3)Nc3ncnn32)cc(OC)c1OC (stereo not given),?,-9%[15.4 µM],3%,-5%,-7,16,.

# (continued)
SMILES,Menin MLL FP FL,gsp ag,gsp antag,Sfp PPTase inh,D2 potentiator,TRPV1 PAM,ClpP mod
COc1ccc(C[C@@H]2CN3C(=NC[C@@H]3C)N2C[C@H](C)NC(=O)CCC2CCCCC2)cc1,5.6,8%,9%,50µM*,-27,23,-1.0%
Cn1c(=O)c(/C(N)=N/OC(=O)c2ccccc2)cn(-c2ccccc2)c1=O,2.8,11%[15.4 µM],6%,-20%,17,26,-2.9%
CCOC(=O)C(C)Oc1ccc(=O)n(-c2ccccc2)n1 (stereo not given),2.9,10%,4%,14%,-4,-4,2.5%
CN(C)c1ccc(N=Nc2ccc(S(N)(=O)=O)cc2)cc1,5.7,-9%[15.4 µM],17%,-7%,-9,4,.
CCOC(=O)C1=C(CNCc2ccccc2Cl)NC(=O)NC1c1cccc([N+](=O)[O-])c1 (stereo not given),1.2,?,17%,3%,-2,13,-0.1%
Cc1ccc(CNCc2cc(Cl)ccc2O)cc1,.,2%,-19%,.,-33,-3,0.5%
Cc1c(NC(=S)NC(=O)C(c2ccccc2)c2ccccc2)cccc1C(=O)O,5.1,-48%[inhibitor],-6%,21%,-14,9,-1.5%
COCCNCCCOc1ccc(Cl)cc1Br,-0.1,-111%[inhibitor],-1%,-7%,-15,1,-2.4%
CCn1nnnc1SCC(=O)c1ccc(NC(C)=O)cc1,0.7,-3%,7%,1%,-12,8,-5.2%
O=C(Nc1nnc(-c2ccccc2)s1)c1cc(S(=O)(=O)N2CCOCC2)c(Cl)cc1Cl,3.5,-4%,-9%,3%,-2,11,-0.8%
Cc1cc(NC(=O)CSc2ccc3nnc(-c4cccc(F)c4)n3n2)no1,0.6,23%,10%,-7%,5,8,?
O=C(Nc1cccc(NS(=O)(=O)c2ccc(S(=O)(=O)NC3CC3)cc2)c1)c1ccccn1,-0.4,13%,-34%,6%,-20,7,-1.3%
CN1CCC(=O)N(CCSc2ccc(Br)cc2)CC1,3.0&1.4,.,7%,4%&2%,-13,23,-2.3%
O=C(Cn1nnc(-c2ccccc2)n1)NC1CCS(=O)(=O)C1 (stereo not given),.,5%[15.4 µM],14%,.,2,25,-3.0%
COc1ccc(-n2nc(C(=O)NCC(=O)NCCCN3CCN(C)CC3)c3ccccc3c2=O)cc1OC,-2.1,10%,2%,5%,-4,1,.
COc1ccc(CCNC(=O)CCn2cccc2)cc1OC,1.7,-34%[inhibitor],-10%,17%,-7,-1,-1.8%
Cc1ccc2c(c1)-c1nc3ccccc3cc1C2=NC1CCCCC1,-0.5,-2%,8%,-11%,-37,-6,-1.8%
CN1C[C@@H]2[C@@H]3C(=O)N(Cc4ccccc4)C(=O)[C@@H]3[C@](C)(C1=O)N2C(=O)c1ccccc1,.,.,9%,.,1,.,0.6%
CCOC(=O)C(=O)Cc1cccnn1,.,0%[15.4 µM],-10%,.,14,.,-11%
CCOc1ccc(NC(=O)CN(C)CC(=O)Nc2ccc(F)c(F)c2F)cc1OCC,5.7,-5%[15.4 µM],-34%,6%,-4,-4,.
CC(C(=O)N1CCc2ccccc21)N(C)CC(=O)Nc1cccc(F)c1 (stereo not given),.,9%,0%,.,-34,-3,2.2%
CC(C(=O)N1CCCC1)N1CCN(c2ccccc2O)CC1 (stereo not given),-3.2,11%[15.4 µM],1%,8%,-1,-4,-3.3%
CC(C)C(=O)N1CCN(c2ccccc2NC(=S)NC(=O)Cc2ccccc2)CC1,.,-6%,?,.,-12,.,1.5%
O=S(=O)(Nc1nnc(C2CCCCC2)s1)c1ccc(F)cc1,.,-81%[inhibitor],-22%,9%,3,5,.
COc1ccc(NC(=O)Cn2c(CCC(=O)O)ccc2-c2ccccc2)cc1,-0.2,10%,-11%,15%,-3,20,-8.0%
O=c1c2ccccc2nnn1COc1ccc(Cl)cc1Br,-6.8,3%[15.4 µM],7%,2%,-7,0,.
O=C(NCCCn1ccnc1)c1ccc(-c2cccc(Cl)c2Cl)o1,.,-36%[inhibitor],11%,.,-47,.,-0.9%
CC(C)=CCN1CCN(Cc2ccoc2)CC1CCO (stereo not given),-8.2,-11%[15.4 µM],11%,-13%,-8,-5,-1.8%
O=C(c1ccoc1)N1CCCC(Nc2ccc(F)c(F)c2)C1 (stereo not given),.,10%,-1%,11%,-22,-22,-0.5%
Cc1cccc(CS(=O)(=O)c2ncc(Cl)c(C(=O)NCc3ccccc3)n2)c1,.,-42%[inhibitor],-6%,?,-23,18,1.1%&2.4%
COC(=O)c1ccc(-n2c(C)cc(C(=O)CCl)c2C)cc1,0.6,-29%,-15%,-42%,-12,4,2.2%
CCC(C)(C)NC(=O)C(c1ccc(OC)cc1)N(C(=O)CCC(=O)Nc1cc(C)on1)C(C)(C)C (stereo not given),0.7,-2%[15.4 µM],5%,9%,-11,7,0.2%

# Screening data as filed in PubChem.
